VDR inh = blocks the human vitamin D receptor; P11473; VDR-SRC2-3 peptide fluorescence polarization, 2 h; Potency, µM, inactives show max response, negative = inhibition, actives largely listed as inhibitors; 400,000 tested, 0.93% active; active = well fitted inhibition curve with a large enough effect; inconclusive = small, poorly fitted or top-dose-only effect, or another doubt; inactive = no such curve, though single readings can be large or run the other way; note: series mostly up to about 120 µM
Target sequence (P11473 whole entry, looked up): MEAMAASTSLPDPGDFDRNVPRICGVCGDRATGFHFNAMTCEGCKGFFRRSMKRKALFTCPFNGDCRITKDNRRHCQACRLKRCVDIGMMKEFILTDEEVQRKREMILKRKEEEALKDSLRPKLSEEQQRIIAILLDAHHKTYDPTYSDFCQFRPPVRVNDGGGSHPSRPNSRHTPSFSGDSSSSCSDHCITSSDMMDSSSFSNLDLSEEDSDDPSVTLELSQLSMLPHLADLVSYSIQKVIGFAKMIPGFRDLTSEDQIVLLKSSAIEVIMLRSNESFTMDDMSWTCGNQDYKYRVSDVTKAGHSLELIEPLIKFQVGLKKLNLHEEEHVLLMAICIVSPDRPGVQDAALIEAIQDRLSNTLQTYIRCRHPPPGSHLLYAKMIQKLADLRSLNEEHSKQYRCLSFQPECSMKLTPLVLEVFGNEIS
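Reagent solutions, kept cold and dark, are dispensed first; compounds are then pinned in at 23 nl, plates briefly spun, and incubated 2 h at ambient temperature. Inhibition of VDR–SRC2-3 peptide binding is read by fluorescence polarization.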
Active calls of the source: *; ? = inconclusive; [ ] = another dose, or the depositor's remark. % is set by controls: 0 for no effect and ±100 for the full control effect; potency is the fitted concentration of half-maximal effect. This is a subset (hit frequency here may not be typical).

The first 2 entries as a preview:
Structure	VDR inh
CCc1ccc(NC(=O)c2ccc(-n3cncn3)c([N+](=O)[O-])c2)cc1	-20%
Cc1ccc(CSc2nnc3[nH]c(=O)cc(-c4ccccc4)n23)cc1	12%

Main list, previewed entries included:
Structure	VDR inh
CCc1ccc(NC(=O)c2ccc(-n3cncn3)c([N+](=O)[O-])c2)cc1	-20%
Cc1ccc(CSc2nnc3[nH]c(=O)cc(-c4ccccc4)n23)cc1	12%
CCOC(=O)c1c(NC(=O)/C=C/c2ccc(OCC)cc2)sc2c1CCC2	-15%
CN1C(=O)c2ccccc2N(C)C1c1cccs1 (stereo not given)	6%
Cc1cccc(C(=O)NCCC(=O)NCc2ccccc2Cl)c1	-1%
CN(Cc1nc2ccccc2c(=O)[nH]1)C(=O)COc1ccccc1Cc1ccccc1	4%
O=C(O)Cc1sc(-c2ccc(C(=O)O)cc2)nc1-c1ccccc1	14%
Cc1cc2c(cc1C)C(c1ccccc1F)CC(=O)N2 (stereo not given)	-5%
CCOc1ccc(S(=O)(=O)N2CCOCC2)cc1NC(=O)CN1C(=O)NC2(CCCC2)C1=O	-20%
Cc1nnc2sc(SCc3ccccc3Cl)nn2c1=O	-2%

Remaining list, next part:
Structure	VDR inh
CCOC(=O)c1ccc(N2C(=O)c3n[nH]c(C)c3C2c2ccc(OC)cc2)cc1 (stereo not given)	-16%
CCCCOc1ccc(/C(O)=C2/C(=O)C(=O)N(CCCOC)C2c2ccncc2)cc1 (stereo not given)	-3%
CCN(C(=O)CSc1nc2ccc(O)cc2c(=O)n1-c1ccc(OC)c(OC)c1)C1CCS(=O)(=O)C1 (stereo not given)	5%
Fc1ccc(C(Nc2ccccn2)c2c[nH]c3ccccc23)cc1 (stereo not given)	-16%
O=C(c1ccco1)c1cn[nH]c1-c1ccc(Cl)cc1O	13%
COc1ccc(N2CCN(C(=O)NCc3ccc(OC)c(OC)c3)CC2)cc1	1%
COc1cc(C(C(=O)NC(C)(C)C)N(Cc2ccc3c(c2)OCO3)C(=O)c2cnccn2)cc(OC)c1OC (stereo not given)	-1%
COc1ccc(-c2cc(-c3cc(OC)ccc3O)[nH]n2)cc1	?
CCOC(=O)N1CCN(Cc2cn[nH]c2-c2cc3ccccc3o2)CC1	0%
Cc1ccccc1N1C(=O)C2C3C=CC(C2C1=O)N(C)C3=O (stereo not given)	0%

Carrying on.
Structure	VDR inh
Cc1ccc(Cn2cnc3sc4c(c3c2=O)CCC4)c(C)c1	2%
Cc1cccc(C(=O)NC(=S)N(C)C2CCCCC2)c1	-6%
CCN1C(=O)c2ccccc2S(=O)(=O)c2ccc(C(=O)NCc3ccccc3OC)cc21	3%
CC1C(=O)N(Cc2ccc([N+](=O)[O-])cc2)c2ccccc2N1C(=O)c1c(F)cccc1F (stereo not given)	-18%
CCN(c1ccc(OC)cc1)S(=O)(=O)c1ccc2c(c1)NC(=O)CS2	15%
COc1ccc(Cc2c(O)nc[nH]c2=O)cc1	-8%
COC(=O)c1cc(=O)c2c([N+](=O)[O-])ccc(OC)c2o1	2%
NC(=O)CSc1nnc(-c2ccncc2)o1	0%
CCOc1ccccc1CNC(=O)CCCc1cn(C)c2ccccc12	1%
Cc1cc(C(=O)OCC(=O)N2C(C)CCCC2C)c(C)o1 (stereo not given)	-4%

The list continues:
Structure	VDR inh
CCCCCCCC(=O)OCC(=O)[C@@]1(O)CC[C@H]2[C@@H]3CCC4=CC(=O)CC[C@]4(C)[C@H]3[C@@H](O)C[C@@]21C	4%
O=c1cc(-c2ccc(O)c(-c3c(O)cc(O)c4c(=O)cc(-c5ccc(O)cc5)oc34)c2)oc2cc(O)cc(O)c12	12%
CCCS(=O)(=O)c1c(S(=O)(=O)CCC)c2cc(C(C)(C)C)ccn2c1C(=O)c1ccccc1	11%
CCOC(=O)N1CCN(C(=O)c2ccc(N(Cc3ccccc3Cl)S(C)(=O)=O)cc2)CC1	18%
Cc1ccc(NC(=O)C2CCCN(C(=O)c3ccc(Cl)cc3)C2)cc1C (stereo not given)	-3%
NS(=O)(=O)c1cccc(NC(=O)COC(=O)CCCc2c[nH]c3ccccc23)c1	5%
O=C(Cn1c(=O)nc(-c2ccccc2)c2ccccc21)N1CCN(c2ccc(F)cc2)CC1	20%
CC(C)[C@H](N)C(=O)OCC(CO)OCn1cnc2c(=O)[nH]c(N)nc21 (stereo not given in full)	9%
CCCCCCC(=O)N1CCCC(c2nc(-c3cccc(OC)c3)no2)C1 (stereo not given)	6%
FC(F)(F)c1ccc(CN2C[C@@H]3C(c4ccccc4)C4(c5cccnc5)CC3(C4)[C@H]2c2ccccc2)cc1 (stereo not given in full)	-14%

(listing goes on)
Structure	VDR inh
O=C(Cc1ccc(Cl)c(Cl)c1)Nc1ccc(S(=O)(=O)Nc2ncccn2)cc1	?
O=C(CSc1nc2ccccc2c(=O)[nH]1)N1CCCCC1	-13%
CC(NC(=O)CCl)c1ccc(Cl)c(Cl)c1 (stereo not given)	-14%
CC(=O)NC12CC3CC(C1)CC(C(=O)N1CCN(S(=O)(=O)c4ccccc4C#N)CC1)(C3)C2	-2%
N=C1SCC(=O)N1c1ncc(Cc2ccccc2Cl)s1	17%
O=C(NCCc1csc(-c2ccccc2)n1)c1c(F)cccc1F	-1%
CC(C)(C)CC(=O)NC(=S)NCc1ccccc1	-22%
COc1ccc(N2C(=O)CCC2=O)cc1	-11%
CC(C(=O)Nc1ccc(OC(F)(F)F)cc1)N1Cc2ccccc2C1=O (stereo not given)	2%
Cc1nc2ccc(S(=O)(=O)NC(C(=O)NCc3ccc(Cl)cc3)C(C)C)cc2s1 (stereo not given)	-12%

Part of the list above in order of formula weight, rising.
Structure	VDR inh
CC(C)(C)CC(=O)NC(=S)NCc1ccccc1	-22%
CC(NC(=O)CCl)c1ccc(Cl)c(Cl)c1 (stereo not given)	-14%
O=C(NCCc1csc(-c2ccccc2)n1)c1c(F)cccc1F	-1%
CC(C(=O)Nc1ccc(OC(F)(F)F)cc1)N1Cc2ccccc2C1=O (stereo not given)	2%

Other structures.
Structure	VDR inh
CCOC(=O)N1CCN(CC(O)COc2ccccc2C(C)(C)C)CC1 (stereo not given)	6%
N#Cc1ccc(OCc2nnc(-c3ccc([N+](=O)[O-])cc3)o2)cc1	12%
Cc1cc(NC(=O)c2ccc(-c3ccccc3[N+](=O)[O-])o2)no1	8%
CCOC(=O)c1c(NC(=O)c2ccccc2Cl)sc2c1CCc1ccccc1-2	?
O=C(O)CCc1nn2c3ccccc3n(CC(=O)O)c2nc1=O	38%[activator]
CCOc1ccc(NC(=S)NC(=O)/C=C/c2ccco2)cc1	-3%
CN(Cc1nc(-c2cccc(Cl)c2)no1)C1CCOCC1	-6%
O=C(O)CC(Cc1ccc(Cl)cc1)C(=O)NCC12CC3CC(CC(C3)C1)C2 (stereo not given)	?
CN(Cc1nc2ccccc2c(=O)[nH]1)C(=O)c1cccc(NC(=O)c2cccs2)c1	-14%
Cc1ccc(OCc2nc3ccccc3n2C)cc1	-14%

(cont.)
Structure	VDR inh
CC(C)(C)c1ccc(-c2nnc3sc(-c4ccccn4)nn23)cc1	?
COC(=O)c1ccc(Cn2cc(Cl)cn2)o1	2%
CC(=O)Nc1ccc(NC(=O)CSC2=NS(=O)(=O)c3cc(Cl)ccc3N2)cc1	-20%
Cc1ccc(S(=O)(=O)N2CCOCC2)cc1C(=O)N1C(=O)c2cccc(N)c2C1=O	20%
Cn1c(=S)[nH]c2[nH]c(=O)cnc2c1=O	12%
O=C(COc1ccc(Br)cc1)N(CCO)CCO	-6%
COc1ccc(-c2cccc(-c3cc(=O)oc4cc5c(cc34)OCO5)c2)cc1	?
Cc1c(Nc2nc3ccccc3nc2NS(=O)(=O)c2cccc(Cl)c2)c(=O)n(-c2ccccc2)n1C	12%
CCN(CCCNC(=O)C1CCC(=O)N1Cc1ccccc1Cl)c1cccc(C)c1 (stereo not given)	-6%
COc1ccc(C(=O)COC(=O)c2ccc3ccccc3n2)cc1	-8%

(list continues)
Structure	VDR inh
COc1ccc(C2C=C(c3ccc(F)cc3)NC(=S)N2)cc1OC (stereo not given)	-5%
Cc1ccc(S(=O)(=O)c2nc(-c3ccccc3)oc2NCCCN2CCOCC2)cc1	-12%
O=C(CSc1nccc(=O)[nH]1)NC1CCCCCCC1	-15%
COc1ccc2sc(N(Cc3cccnc3)C(=O)CCc3ccccc3)nc2c1	11%
COC(=O)c1ccc(CSc2nc3c(cnn3-c3ccc(Cl)cc3)c(=O)[nH]2)o1	29%
O=C1C(=O)N(CCN2CCCCC2)c2ccccc21	0%
O=C(Nc1ccc2oc(-c3ccncc3)nc2c1)c1ccc(F)cc1	-5%
Cc1ccc(C(=O)N2CCN(c3ccc(F)cc3)CC2)cc1NC(=O)c1nsc2ccccc12	11%
COc1ccc(S(=O)(=O)N2CCCCCC2)cc1C(=O)N(C)Cc1ccc(OC)c(OC)c1OC	14%
CC1CC(C)CN(CCCNC(=O)Cn2cccc2C(=O)c2ccccc2)C1 (stereo not given)	-20%

(list continues)
Structure	VDR inh
O=C(/C=C/c1ccco1)Nc1cccc(C(=O)Nc2ccccc2C(=O)O)c1	?
COc1cc2c(cc1OC)C(C)N(S(=O)(=O)c1ccc(C)cc1)CC2 (stereo not given)	-12%
CCc1cccc(NC(=O)C2CCN(S(=O)(=O)c3cccs3)CC2)c1	9%
Cc1ccccc1C(=O)Nc1ccc(N2CCCCCC2)cc1	15%
COc1cc2c(cc1OC)C(c1ccc([N+](=O)[O-])cc1)NC(=O)C2 (stereo not given)	-15%
C/C=C1\COC(C(=O)NCc2ccccn2)(C(F)(F)F)C=C1C=C(C)C (stereo not given)	?
CCCCNC(=S)NC(=O)c1ccccc1Br	0%
CCOC(=O)C1=C(N)Oc2ccc(Br)cc2[C@@H]1[C@@H](C#N)C(=O)OCC	?
CN(Cc1cnccn1)C(=O)CC1C(=O)NCCN1Cc1cccc(Oc2ccccc2)c1 (stereo not given)	-23%
CC1CN(C(=O)c2cc3cc(Cl)cc(Cl)c3oc2=O)CC(C)O1 (stereo not given)	2%

Later entries.
Structure	VDR inh
Cn1nnnc1SCC(=O)Nc1ncc(C(F)(F)F)cc1Cl	-11%
COc1cc2nc(CN3CCN(S(=O)(=O)c4c(F)cccc4F)CC3)[nH]c(=O)c2cc1OC	-2%
CCCCOc1cccc(C(=O)Nc2ccc(N3CCN(CC)CC3)cc2)c1	0%
CC(Sc1nnc(-c2cccnc2)n1N)C(=O)NCCC1=CCCCC1 (stereo not given)	-2%
O=C(O/N=C1/CCSc2ccccc21)c1ccc(F)cc1	8%
O=C(Cn1cc(S(=O)(=O)N2CCCC2)c(S(=O)(=O)N2CCCC2)c1)NCc1ccco1	0%
COc1c(F)c(F)c(C(=O)O)c(Nc2ccc(C)cc2)c1F	13%
COc1ccc(C)c(Cn2c(-c3nonc3N)nc3ccccc32)c1	-8%
COc1cc(OC)cc(-n2nnc(-c3nc(-c4ccccc4Cl)no3)c2N)c1	-8%
O=C(NCCCn1ccnc1)c1cn(Cc2ccc(F)cc2)nn1	11%

2 of the compounds above, with values ahead of the structure.
VDR inh	Compound
-4%	Cc1cc(C(=O)OCC(=O)N2C(C)CCCC2C)c(C)o1 (stereo not given)
4%	CCCCCCCC(=O)OCC(=O)[C@@]1(O)CC[C@H]2[C@@H]3CCC4=CC(=O)CC[C@]4(C)[C@H]3[C@@H](O)C[C@@]21C

Remaining list, next part.
Structure	VDR inh
CS(=O)(=O)c1cccc(C(=O)Nc2nnc(C3=COCCO3)o2)c1	?
O=C(C1=C[C@H](c2ccccc2)C[C@H](OCCCCO)O1)N1CCN(Cc2ccccc2)CC1	-6%
Cc1nc2ccc(NC(=O)c3nn(CC(C)C)c(=O)c4ccccc34)cc2s1	-4%
COc1ccc(NC(=O)CCCn2c(=O)c3cccn3c3cccnc32)cc1Cl	9%
COc1ccc(N(C)C(=O)c2ccc(NC(=O)CCS(=O)(=O)c3cccs3)cc2)cc1	0%
CCOCCn1ccc2c(OCC(=O)Nc3ccccc3F)cccc2c1=O	0%
Cc1ccc(S(=O)(=O)N2CCCN(C(=O)c3ccc(-n4nccc4C)cc3)CC2)cc1	11%
CC1=Nc2ccccc2N=C(NC(=O)CSc2nnnn2-c2ccccc2)C1c1ccccc1 (stereo not given)	-3%
O=C(CN(C(=O)CNC(=O)c1ccco1)c1ccc(F)cc1)NC1CCCCC1	-6%
Cc1ccccc1NC(=O)CCNS(=O)(=O)c1ccc2c(c1)CCC(=O)N2	11%

(continued)
Structure	VDR inh
Cc1cc(N)nc(=O)n1C1CC(O)C(CO)O1 (stereo not given)	-8%
C=CCSC1=N/C(=C\c2cc(OC)c3c(c2)OCO3)C(=O)S1	-5%
CCCSc1nc2c(c(=O)[nH]c(=O)n2C)n1CC(O)COc1ccccc1 (stereo not given)	-20%
O=c1[nH]c2ccccc2n1C1CCCCC1	-10%
O=C(CCSc1nnc(-c2ccncc2)o1)Nc1ccc(Cl)cc1	-4%
CCCS(=O)(=O)c1c(S(=O)(=O)CCC)c2ccc(C(N)=O)cn2c1C(=O)c1ccc(OC)cc1	3%
CN(C)CCNC(=O)c1ccc(COc2ccc(Cl)cc2Cl)cc1	4%
N#Cc1ccc(-c2ccccc2)nc1SCC(=O)c1cccc(Cl)c1	-17%
COc1cccc(-c2nc(SCc3ccc(C)cc3)n3[nH]c(=O)cc3n2)c1	2%
NCCCC[C@H](NC(=O)[C@@H]1CCCN1C(=O)[C@H](CO)NC(=O)[C@H](CC(=O)O)NC(=O)CNC(=O)[C@H](CCCN=C(N)N)NC(=O)CN)C(=O)O	17%
COc1ccc(-c2nc(=S)c3c(n2Cc2cccnc2)CC(C)(C)OC3)cc1	1%

Bioassay records: PubChem BioAssay, National Center for Advancing Translational Sciences (NCATS)
